RN4220 kill – kills Staphylococcus aureus RN4220; S. aureus RN4220 growth, OD600, 16 h; inhibition, % (no concentration beside the values); 330,000 compounds, 0.33% hits; AID 1259311;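 active means z-score of -3 or lower and OD600 up to 0.18 on both plates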;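 further: plate controls were untreated cells for no effect and reference antibiotic for full effect; stock transfer was 100 nL into about 80 µL; one replicate is shown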
PrP UTR inh – inhibition of PrP 5' UTR reporter expression | cell-based PrP 5' UTR mRNA reporter, plate reader | inhibition, % (concentration not given with the values) | 340,000 compounds, 0.35% hits;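 active means every replicate at 50% or more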;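 further: 0 = median of the neutral control wells; tested in H4 reporter cells; numbers are from one replicate; inactives centre near -14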
BJeLR viability – kills HRASV12-expressing BJeLR cells | BJeLR (HRASV12) viability, CellTiter-Glo ATP luminescence, 48 h; reference of the scale not given here | inhibition, % (test concentration not listed) | 300,000 compounds, 0.17% hits | AID 1554;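 active means replicate mean above 50%; inconclusive means above 50% but judged a plate artefact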;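 further: 50 nL library stock added to about 25 µL; numbers are from one replicate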
Sa ugtP lethal – kills S. aureus RN4220 lacking UgtP; growth inhibition, % (no concentration beside the values); S. aureus RN4220 ugtP deletion, OD600 growth, 16 h; some inactives read as strong as hits; 330,000 compounds, 0.54% hits;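 active means z-score under -3 and OD600 up to 0.15 on both plates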;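 further: plate controls were untreated wells for no effect and antibiotic for full effect; wells of about 80 µL received 100 nL stock; the first replicate is given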
Bead autofluor – counter-screen for toxin protease inhibitors: compound fluorescence. compound autofluorescence counterscreen, microsphere flow cytometry; hits give high values. fluorescence intensity (test concentration not listed). 360,000 compounds, 3.1% hits;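 active means at least 3 SD above the mean of all compounds, about 16000 in these data; inconclusive means too few beads counted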;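 further: 100 nL of 1 mM stock went into each well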
Mtb hypoxia rep – Mtb hypoxia fluorescent reporter inhibition; M. tuberculosis hypoxia-regulated fluorescent reporter, fluorescence; fluorescence inhibition, % (no concentration beside the values); 300,000 compounds, 0.1% hits;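 active means 35 to 45% if threefold the growth effect, above 45% if 1.5-fold the growth effect; inactive means the rest, general growth blockers included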;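 further: wells of about 50 µL received 100 nL stock; 0% = vehicle wells and 100% = reference inhibitor wells; whole bacteria with a GFP reporter of the hypoxia response; strong numbers were not always called active; many hits fall short of the cut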
Mtb hypoxia rep growth – further read-out of Mtb hypoxia rep, marked with its call; growth inhibition, %; measured here: M. tuberculosis growth (absorbance);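 0% = vehicle and 100% = reference antibiotic; read after six days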
An asterisk follows results filed as active; u = inconclusive; x = no result given; & = joins results of further samples; ! = a repeat was not active.

SMILES | RN4220 kill | PrP UTR inh | BJeLR viability | Sa ugtP lethal | Bead autofluor | Mtb hypoxia rep | Mtb hypoxia rep growth
Cc1ccc(C(=O)NC=C(Cl)Cl)cc1 | 4.8 | -10.9 | -6.0 | 2.1 | 9206 | 3.3 | 5.3
CC(=O)c1ccc(OCC(O)Cn2nnc3ccccc32)cc1 (stereo unspecified) | -2.7 | -30.8 | -11.9 | 0.2 | 7190 | 2.2 | 0.3
COc1ccc(C2=CC(c3cc(OC)c(OC)c(OC)c3)NC(=S)N2)cc1 (stereo unspecified) | 5.1 | -10.4 | -0.7 | 0.7 | 2465 | 6.0 | 2.1
Cc1cc(NC(=O)COC(=O)c2ccc(OC(F)(F)F)cc2)no1 | 3.6 | -38.4 | x | 4.0 | 3978 | 14.4 | 4.8
Cc1ccccc1NC(=O)COc1ccc(S(=O)(=O)N2CCCC2)cc1C | 2.1 | -22.5 | 0.5 | -1.9 | 6142 | 1.1 | 2.4
O=C(COc1ccc(Cl)cc1Cl)NN=Cc1ccc(OC2OC(CO)C(O)C(O)C2O)cc1 (stereo unspecified) | -3.8 | x | x | -3.2 | x | -6.4 | 2.1
Cc1nonc1C(=O)NN=Cc1ccccc1 | 4.7 | x | x | 8.5 | x | -0.1 | 2.2
COc1ccc(S(=O)(=O)Nc2ccc(Cl)cn2)c(C)c1C | 7.0 | -21.1 | 9.3 | -3.4 | 10087 | 1.3 | -1.7
CC(=O)c1ccc(S(=O)(=O)N(C)CC(=O)N2CCCCCC2)cc1 | 4.1 | -23.6 | 2.2 | 5.9 | 3644 | -6.1 | 7.5
Cc1ccc(Nc2nc(N3CCOCC3)nc(N3CCOCC3)n2)cc1Cl | 3.4 | -3.9 | -0.1 | -6.2 | x | 7.0 | 3.4
CN1C(=O)c2ccc(C(=O)Nc3nccs3)cc2C1=O | 5.4 | -19.2 | -0.1 | -1.0 | 3359 | -0.9 | 2.0
COc1ccc(S(=O)(=O)Nc2ccc(S(=O)(=O)N(C)C)cc2)cc1[N+](=O)[O-] | 5.3 | 6.6 | 2.7 | 2.9 | 1993 | 10.1 | 4.9
Cc1ccc(C(=O)O)cc1NC(=O)CSc1nnc(-c2ccccc2F)n1C1CCCCC1 | 2.0 | -14.4 | x | -1.4 | 4990 | -6.0 | 3.9
CN1C(C(=O)NCc2ccco2)CC2Cn3c(nc4ccccc43)C21 (stereo unspecified) | 5.1 | -21.5 | 10.8 | 2.1 | 3136 | 4.7 | -2.9
CCOC(=O)C1CCN(c2nc(C)nc3c2oc2ccccc23)CC1 | 1.7 | -6.8 | 0.4 | 11.4 | 2568 | 15.8 | 6.1
O=C1Cc2ccccc2C(c2c(Cl)cccc2Cl)N1 (stereo unspecified) | 1.6 | -9.5 | 4.4 | 3.8 | 3952 | 3.7 | -6.8
CC(C)=NOCC(=O)Nn1c(COc2c(C)cccc2C)nc2ccccc2c1=O | 17.7 | -2.4 | 4.8 | -4.1 | 3853 | 14.9 | -1.8
Cc1ccc(C)c(N2CCN(C(=O)c3ccc(NS(=O)(=O)c4c(C)noc4C)cc3)CC2)c1 | 4.4 | -19.9 | 11.0 | 1.0 | 4400 | 12.5 | 5.9
CC(=O)C12OC1CC1C3CCC4=CC(=O)CCC4(C)C3CCC12C (stereo unspecified) | -2.6 | -13.5 | -1.0 | 1.2 | 3088 | 4.4 | 6.1
NC1=NCC(Cc2ccc(O)cc2)N1CCc1cccc2ccccc12 (stereo unspecified) | 76.3&6.5 | x | x | 100.4*! | x | -0.1&7.3 | 1.2&16.5
CC(=O)N1CCC2(CC1)CC(=NNC(=S)Nc1ccccc1C)c1cc(O)ccc1O2 | 5.8 | x | x | 5.1 | x | -5.2 | 2.0
CC(C)Oc1ccc(CCC(=O)NN=Cc2ccc3c(c2)OCO3)cc1 | -2.0 | x | x | 2.2 | x | 0.0 | -1.1
c1ccc(-c2ccc(-c3csnn3)cc2)cc1 | 4.4 | -37.2 | 1.0 | -8.2 | 2550 | x | x
CN(c1ccc([N+](=O)[O-])cc1C(=O)Nc1ccccc1)C1CCCCC1 | 16.9 | 2.1 | -4.6 | -25.7 | 21198* | -5.4 | 7.8
CC(=O)Nc1ccc(C(=O)NNS(=O)(=O)c2ccc(C)cc2)cc1 | -2.7 | -25.6 | -2.5 | -2.5 | 3521 | 12.4 | -5.4
CC(C)NCC(O)COCCOc1ccc(Br)cc1 (stereo unspecified) | 2.5 | -8.0 | -2.5 | -1.1 | 2453 | 5.5 | 11.8
COc1cc(C2OC(=O)C3C(c4ccc(OC(C)=O)c(OC)c4)OC(=O)C23)ccc1OC(C)=O (stereo unspecified) | -2.4 | 0.9 | 5.4 | 0.2 | 4270 | -1.0 | 14.5
CN(C)c1ccc(C=Nn2ncc3ccccc32)cc1 | -13.9 | x | x | 76.3 | x | 13.5 | 10.2
Cc1ccc2c(c1)nnn2C1CCN(CC(=O)N2c3ccccc3CC2C)CC1 (stereo unspecified) | 8.1 | -10.7 | 9.6 | -0.7 | 11085 | 5.7 | 8.1
O=C1Nc2ccccc2C12OCCCCO2 | -0.3 | -9.9 | -4.7 | 0.2 | 4383 | x | x
CCCNS(=O)(=O)c1ccc(CCC(=O)NCc2cccnc2)cc1 | 3.2 | -19.6 | 7.8 | 6.6 | 6683 | 0.1 | -3.1
O=Cc1c(NCc2ccccc2F)c2ccccc2[nH]c1=O | -0.5 | -22.8 | -4.4 | 6.4 | 3986 | 14.9 | 4.2
CCC(C(=O)N1CCN(c2ccccn2)CC1)n1nc(C)n2c(cc3occc32)c1=O (stereo unspecified) | 3.5 | 0.4 | 2.4 | -4.6 | 2406 | 1.9 | -4.5
CCOC(=O)N1CCN(C(=O)C(CC)n2nc(C)c3sc4ccccc4c3c2=O)CC1 (stereo unspecified) | 4.7 | 81.3* | -8.8 | -1.2 | 3067 | 11.5 | 10.0
O=C(Nc1ccccc1C(=O)Nc1ccncc1)c1cccc([N+](=O)[O-])c1 | 1.4 | -17.6 | -1.7 | 2.5 | 5532 | -1.0 | -3.9
Cc1c(C(=O)Nc2ccc(Cl)cc2)c2ccccn2c1CCc1ccncc1 | -1.6 | -29.1 | -2.7 | 2.5 | 3081 | -6.2 | 8.3
O=C(O)CCc1ccc(-c2ccc(Br)cc2)n1CC(=O)O | 2.7 | -24.0 | -1.4 | 2.0 | 9057 | 12.2 | -4.9
CN(C)C(=O)c1ccc(NC(=O)c2ccccc2Sc2ccccc2C#N)cc1 | 2.4 | -22.2 | 17.2 | 10.3 | 2463 | 12.4 | 12.4
COC(=O)c1cc(-c2c[nH]c3ccccc23)n[nH]1 | 3.5 | -31.7 | -3.2 | 3.4 | 3704 | x | x
CCOc1cc(C(=O)Nc2cc3c(cc2N2CCCC2)n(C)c(=O)n3C)cc(OCC)c1OCC | 4.5 | -3.4 | -3.7 | 6.9 | 4708 | 0.9 | -6.4
COc1cc(C(=O)Nc2cc3c4c(c2)CC(=O)N4CCC3)cc(OC)c1OC | 3.6 | -34.5 | 11.1 | 5.7 | 5079 | -0.1 | 0.5
CCn1cnc2c1c(=O)n(Cc1csc(-c3ccccc3)n1)c(=O)n2Cc1ccccc1 | 6.3 | -8.3 | 6.4 | -1.2 | 2406 | x | x
CC1CCN(S(=O)(=O)c2ccc3[nH]cc(C(=O)NCCN4CCOCC4)c(=O)c3c2)CC1 | 22.9 | -5.2 | 6.1 | 20.3 | 2364 | 4.7 | 2.4
O=[N+]([O-])c1ccc(Cl)c(S(=O)(=O)Nc2ccc(-c3ccc(N4CCCC4)nn3)cc2)c1 | 4.1 | -19.2 | 3.1 | 6.9 | u | -0.1 | -5.9
O=C(Cc1ncc(C(F)(F)F)cc1Cl)Nc1ccc(F)cc1 | 0.4 | -20.4 | 2.9 | 2.3 | 2617 | x | x
O=C(NC(=S)Nc1ccc2c(c1)OCCO2)c1cccc(Br)c1 | 1.1 | -83.5 | -16.6 | 74.8 | 1975 | -1.7 | 3.5
CCOc1ccc(N(CC(=O)NCCc2ccccc2)C(=O)CCC(=O)Nc2cc(C)ccn2)cc1 | -1.6 | -5.4 | -15.2 | -4.0 | 4629 | -1.6 | -2.8
O=C(c1cc(COc2ccccc2)on1)N1CCCC(OCc2cccnc2)C1 (stereo unspecified) | 4.6 | 8.3 | -0.4 | 3.3 | 5452 | 8.2 | 13.8
CCN(Cc1nc2cc(Cl)ccc2c(=O)[nH]1)C(=O)c1cccc(OCc2c(C)noc2C)c1 | 4.5 | -1.0 | x | 2.5 | 4058 | 0.7 | 2.5
CCOC(=O)CCNC(=O)CNC(=O)OCc1ccccc1 | -0.9 | -10.9 | -10.4 | -0.1 | 4206 | x | x
CC(=O)c1ccc(S(=O)(=O)NCCCC(=O)N(C)Cc2ccc3c(c2)OCO3)cc1 | 4.2 | -32.9 | x | 2.3 | 3510 | 18.1 | 8.0
CC(=NNc1nccnc1Cl)c1ccc([N+](=O)[O-])cc1 | 4.8 | x | x | 7.0 | x | 15.9 | 7.1
COc1ccc(CNC(C)C(=O)Nc2ccc3ccccc3c2)cc1OC (stereo unspecified) | 7.2 | -15.3 | -3.8 | 10.2 | 3120 | 4.4 | 3.3
COC(=O)CCCCC(=O)OC | 5.6 | -18.6 | x | 4.4 | 4396 | 9.5 | 8.4
O=C(NCc1ccc(OC(F)(F)F)cc1)c1cc(-c2ccccc2)nn1CC1CC(c2cccnc2)=NO1 (stereo unspecified) | -2.2 | -3.0 | -0.6 | -0.2 | 2926 | 4.7 | 10.9
Cc1ccc(C(=O)N[C@H](C(=O)N2CCN(c3ccccc3F)CC2)C(C)C)cc1 | -3.6 | -27.5 | 0.5 | 4.9 | 3485 | 1.6 | 4.1
O=C(COC(=O)c1cc(-c2ccc(F)cc2)nc2ccccc12)NCC1CCCO1 (stereo unspecified) | -1.3 | -10.8 | -3.3 | -1.9 | 2617 | -4.2 | -20.8
N#Cc1cnc(SCC(=O)Nc2ccccc2C(F)(F)F)nc1N | 3.6 | -7.9 | 8.4 | 20.0 | 17110* | 8.4 | 3.2
Cc1ccc(C)c(S(=O)(=O)N(C)c2ccc(OC(=O)C3CCN(C(=O)Nc4ccccc4)CC3)cc2)c1 | 3.9 | -7.7 | x | 6.2 | 3827 | 9.9 | 0.6
CCC(=O)N(CCO)Cc1cc2ccc(C)c(C)c2[nH]c1=O | 8.0 | -17.3 | 7.2 | 8.6 | 3206 | 5.9 | 7.2

(more compounds)
SMILES | RN4220 kill | PrP UTR inh | BJeLR viability | Sa ugtP lethal | Bead autofluor | Mtb hypoxia rep | Mtb hypoxia rep growth
O=C(CCc1nnc(CCc2ccccc2)o1)N1CCCC1c1nccs1 (stereo unspecified) | 2.1 | -24.2 | -6.1 | 0.0 | 4277 | 11.6 | 12.6
CCC(C)NC(=O)CSc1nc2ccsc2c(=O)n1-c1ccc(OC)cc1 (stereo unspecified) | 6.6 | -44.1 | -4.0 | -7.8 | 4915 | 0.3 | 5.3
O=C(NC1CCCCC1)NC1CCN(CC(=O)N2CCOCC2)CC1 | -0.3 | -16.8 | -9.8 | 5.2 | 3083 | -0.8 | 4.7
NC(=O)c1ccsc1NC(=O)CN1C(=O)C2CC=CCC2C1=O (stereo unspecified) | -4.1 | -5.3 | -6.7 | -5.1 | 6555 | -3.4 | 4.4
O=C(CCCc1ccccc1)Nc1ccnn1C1CCN(Cc2ccccn2)CC1 | 0.0 | 1.9 | -1.8 | 2.6 | 5941 | -4.3 | 4.9
C/C(N)=C(/C#N)C(=O)COC(=O)CCSc1ccccc1 | 2.7&3.0 | 42.7&-11.6 | 9.8 | -0.7&2.5 | 4161&8920 | 5.3&5.8 | 7.0&8.1

Compound activity: PubChem BioAssay, several laboratories
